PINK1 expr mod – PINK1 expression modulation. AID 624263. Potency, µM (doses to about 76.6 µM), without a hit: top-dose activation (PINK1 increase), usual class: activators. PINK1 immunofluorescence, high-content cytometry, 24 h. hit rate 0.2% among 410,000; active = well fitted activation curve with a large enough effect; inconclusive = small, poorly fitted or top-dose-only effect; inactive = flat fitted curve, though single readings scatter; cell line not stated here;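 further: potency means the concentration at half of the fitted maximal effect; % of control where 0% means no effect; nearly all actives have a fitted effect of over 65% in size; a mitochondrial uncoupler was the plate control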
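Decision-based qHTS: stable cells, 24 h exposure to five compound concentrations, CCCP as control. Fixed cells stained for PINK1 plus nuclear, mitochondrial and cell markers, cytometer read.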
TRPML1 inh – human mucolipin-1 channel inhibition. TRPML1-inducible cells, Ca2+ dye fluorescence, FDSS; hits give low values; inhibition of EC80 agonist-evoked calcium signal. AID 624415. activity change, negative = inhibition, % (test concentration not listed). hit rate 0.02% among 390,000. Q9GZU1; in the data active means activity change below about -50%; inconclusive means about -30% to -50%; inactive means above about -30%;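 further: stimulus is agonist 54-4 at its EC80 concentration; on the % scale 0 is the no-effect control and ±100 the full control effect; compound concentration not given in the record; the text of the record puts the active cut at -80%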
Target sequence (Q9GZU1 whole entry, looked up): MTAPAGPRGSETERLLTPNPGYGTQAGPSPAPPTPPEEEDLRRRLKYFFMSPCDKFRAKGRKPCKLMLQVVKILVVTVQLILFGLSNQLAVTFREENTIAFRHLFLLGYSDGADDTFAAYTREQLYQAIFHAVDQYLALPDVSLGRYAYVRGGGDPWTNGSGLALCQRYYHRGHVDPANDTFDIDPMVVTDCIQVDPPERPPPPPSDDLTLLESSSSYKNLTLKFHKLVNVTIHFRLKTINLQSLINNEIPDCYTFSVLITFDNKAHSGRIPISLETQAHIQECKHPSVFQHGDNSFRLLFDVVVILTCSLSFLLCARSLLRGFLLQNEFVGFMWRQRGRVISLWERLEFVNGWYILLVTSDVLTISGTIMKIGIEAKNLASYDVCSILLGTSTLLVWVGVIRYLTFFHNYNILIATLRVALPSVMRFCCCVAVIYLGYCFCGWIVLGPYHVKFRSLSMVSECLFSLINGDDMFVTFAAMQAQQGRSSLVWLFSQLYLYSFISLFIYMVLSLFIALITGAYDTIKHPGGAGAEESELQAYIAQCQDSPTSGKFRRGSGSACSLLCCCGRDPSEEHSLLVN
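Calcium fluorescence in TRPML1-DL cells induced overnight with Tet: a 110 s read after compound pin addition, then a 110 s antagonist read after challenge with 54-4 at 4 uM final (EC80).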
Six1-Eya2 blk – Six1/Eya2 interaction inhibition. Q15475+O00167. AlphaScreen GST-Six1/His-Eya2 binding, biochemical; hits give low values; control for the full effect not named in the record. activity change, % (test concentration not listed). hit rate 0.56% among 360,000; in the data active = activity change below about -65%; inconclusive = about -30% to -65%; inactive = above about -30%; further: on the % scale 0 is the no-effect control and ±100 the full control effect; compound concentration not given in the record
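Homogeneous AlphaScreen proximity assay pairing GST-Six1 with His-tagged Eya2 (added as 5X mix: 250 nM and 500 nM) in 50 mM Tris pH 8.0, 300 mM NaCl, 1 mM TCEP. Glutathione donor and nickel acceptor beads; 1 h, 37 °C, dark.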
CtBP-E1A blk – blocks the CtBP interaction with E1A; AlphaScreen GST-E1A/His-CtBP binding, 1536-well; hits give low values; control for the full effect not named in the record; activity change, % (test concentration not listed); hit rate 0.49% among 340,000; AID 651724; in the data active means activity change below about -65%; inconclusive means about -30% to -65%; inactive means above about -30%; further: on the % scale 0 is the no-effect control and ±100 the full control effect; compound concentration not given in the record
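Protein mix (5X: 125 nM each GST-E1A, His-CtBP) was incubated with pinned compound 2 h at 37 deg C in dark, in 50 mM Tris pH 8.0 buffer with 300 mM NaCl. Glutathione donor and nickel acceptor beads followed; AlphaScreen signal read after 1 h.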
TRPML1 ag – human mucolipin-1 channel agonism; Q9GZU1; TRPML1-expressing cells, Ca2+ dye fluorescence, FDSS; host cell line not named in the record; reference of the full effect not given here; activation, % (test concentration not listed); hit rate 0.12% among 410,000; AID 624414; in the data active = activation above about 50%; inconclusive = about 30% to 50%; inactive = below about 30%; further: 0% is about no effect; the text of the record puts the active cut at 80%
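Calcium fluorescence on an FDSS kinetic reader gave the read-out. Tet-induced TRPML1-DL cells were plated overnight, dye-loaded (Ca8 with quencher, 45-90 min, room temperature, dark), then read 110 s after compound addition, and again 110 s after 4uM final 54-4 (EC80).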
D2 agonist – agonists of human D2 dopamine receptor (beta-arrestin) | P14416 | DiscoveRx PathHunter D2 beta-arrestin, luminescence, 90 min; 100% = 57 uM dopamine signal | activation, % (test concentration not listed) | hit rate 0.084% among 360,000 | AID 624465; in the data active = activation above about 40%; inconclusive = about 15% to 40%; inactive = below about 15%; further: compound concentration not given in the record; the text of the record calls up to 30% inactive
Target sequence (P14416 whole entry, looked up): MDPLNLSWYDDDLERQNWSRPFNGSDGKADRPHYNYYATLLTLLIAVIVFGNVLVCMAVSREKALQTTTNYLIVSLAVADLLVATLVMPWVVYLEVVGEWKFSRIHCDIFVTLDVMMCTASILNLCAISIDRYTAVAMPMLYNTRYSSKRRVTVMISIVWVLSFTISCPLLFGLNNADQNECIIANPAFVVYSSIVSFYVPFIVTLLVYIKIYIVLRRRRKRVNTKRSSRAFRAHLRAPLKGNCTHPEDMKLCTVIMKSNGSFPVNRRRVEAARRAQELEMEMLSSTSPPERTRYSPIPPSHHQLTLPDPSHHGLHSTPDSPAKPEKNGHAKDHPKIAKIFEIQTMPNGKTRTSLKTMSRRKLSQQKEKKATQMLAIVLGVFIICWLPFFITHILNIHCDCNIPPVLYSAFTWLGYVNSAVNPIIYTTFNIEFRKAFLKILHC
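DiscoveRx PathHunter D2 beta-arrestin cells (2,100/well) attached overnight, then compound-stimulated 90 min at 37 C in HBSS/10 mM HEPES/0.1% Tween-20 buffer; beta-galactosidase complementation read by luminescence after 1 h at ambient temperature. Dopamine 57 uM final (EC100) as control.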
An asterisk follows results filed as active; u = inconclusive; x = not tested or not shown; [ ] = another dose, or the depositor's remark.

SMILES	PINK1 expr mod	TRPML1 inh	Six1-Eya2 blk	CtBP-E1A blk	TRPML1 ag	D2 agonist
COc1ccccc1C(=O)NC(CCSC)C(=O)OCC(=O)N1CCCC1=O (configuration not stated)	3.7%	6	-8	x	-1.4	-1.9
Oc1c(CN2CCCCC2)cc(COCc2ccccc2)c2cccnc12	0.4%	3	-85*	-3	3.5	-16
CCn1c(SCC(=O)c2ccccc2)nc2sc3c(c2c1=O)CCN(C)C3	-0.8%	16	-10	-22	1.4	2.6
CCN(CC)CCN(C(=O)c1ccc(Br)s1)c1nc2cc3c(cc2s1)OCCO3	-1.3%	6	-10	-9	0.4	-1.5
Clc1ccc(-c2noc(CCCc3ccccc3)n2)cc1	x	0	55	52	0.5	-1.3
CCn1c(SCC(=O)Nc2nncs2)nnc1-c1ccco1	0.9%	26	-22	0	3.5	2.2
COCCNC(=O)C1(C)CCN(C(=O)c2ccc(F)c(C)c2)C1 (configuration not stated)	-0.4%	-2	1	3	0.4	-5.9
CCC1CCCCN1C(=O)c1ccc(OC)c(OC2CCN(C(C)C)CC2)c1 (configuration not stated)	-1.1%	15	-2	0	0.7	-3.7
COc1ccc(CC(=O)NCCc2csc3nc(-c4ccccc4F)nn23)cc1	-0.1%	9	x	x	2.2	x
NC(=O)CC(NC(=O)Cc1cccc2ccccc12)c1ccc(N2CCC(N3CCCC3)CC2)c([N+](=O)[O-])c1 (configuration not stated)	-0.4%	-20	2	-8	-0.3	-1.9
COc1ccc2nc(NC(=O)CSc3nccc(C)n3)sc2c1	-1.7%	14	-6	-7	-0.4	1.3
O=C(Nc1nccs1)c1ccc(CSc2nnnn2-c2ccccc2)cc1	-2.0%[38.3 µM]	-6	-68*	-79*	1.8	2.3
O=S1(=O)CC(N2CCN(Cc3ccccc3F)CC2)CN1Cc1cn(Cc2ccc(Cl)cc2)nn1 (configuration not stated)	-0.2%	x	-6	-1	-0.5	x
N#CC(C#N)=C1C=CC=CN1/C(=C\c1ccco1)C(=O)c1ccccc1	-1.3%	5	-21	-5	4.6	-7.9
COc1ccc(Cl)cc1NC(=O)C/C(C)=N/NC(=O)Cc1ccccc1	1.6%	2	2	4	-0.5	-4.8
CNC(=O)c1ccc(-c2nc(CN3CCc4ccccc43)c(C)o2)cc1	1.9%	-15	x	x	1.1	x
Cc1ccccc1NC(=O)c1c([N+](=O)[O-])cnn1C	-0.2%	-2	-3	7	-0.2	-2.8
COc1ccc(CCC(=O)Nc2cccc(S(=O)(=O)N3CCCC3)c2)cc1OC	2.4%	10	-11	x	0.2	-1.1
COc1ccc(-c2cc(C(=O)N3CCN(c4ccccc4)CC3)c3ccccc3n2)cc1OC	0.2%	1	-20	-18	1.8	1.0
Cc1cc2oc(=O)cc(-c3ccccc3)c2c(C)c1-c1ccc(C#N)cc1	-0.2%	-12	0	0	-0.9	-0.8

Part of the list above, as labelled records:
SMILES: O=S1(=O)CC(N2CCN(Cc3ccccc3F)CC2)CN1Cc1cn(Cc2ccc(Cl)cc2)nn1 (configuration not stated)
- PINK1 expr mod: -0.2%
- TRPML1 inh: x
- Six1-Eya2 blk: -6
- CtBP-E1A blk: -1
- TRPML1 ag: -0.5
- D2 agonist: x
SMILES: N#CC(C#N)=C1C=CC=CN1/C(=C\c1ccco1)C(=O)c1ccccc1
- PINK1 expr mod: -1.3%
- TRPML1 inh: 5
- Six1-Eya2 blk: -21
- CtBP-E1A blk: -5
- TRPML1 ag: 4.6
- D2 agonist: -7.9
SMILES: COc1ccc(Cl)cc1NC(=O)C/C(C)=N/NC(=O)Cc1ccccc1
- PINK1 expr mod: 1.6%
- TRPML1 inh: 2
- Six1-Eya2 blk: 2
- CtBP-E1A blk: 4
- TRPML1 ag: -0.5
- D2 agonist: -4.8

Additional results
SMILES	PINK1 expr mod	TRPML1 inh	Six1-Eya2 blk	CtBP-E1A blk	TRPML1 ag	D2 agonist
CN(C)C(=O)CN1CCN(c2nc3nonc3nc2N2CCCCC2)CC1	-0.5%	11	-20	-12	-0.2	3.8
O=S(=O)(c1ccc(F)c(F)c1F)N1CCN(C(=S)NCc2ccccc2)CC1	4.4%	-7	-1	4	-0.3	0.7
CSc1nnc(C)c(=O)n1COC(=O)COc1ccccc1F	1.6%	17	7	-28	-0.7	2.6
CCOc1ccccc1NC(=O)NCCN1CCCCC1	0.3%	7	-6	-5	0.7	2.9
Cc1ccc(CN2CCN(/N=C/c3cc(Br)cc(Br)c3O)CC2)cc1	12%	-6	-27	u	0.5	-2.0
COc1cc(NS(=O)(=O)c2ccc(Br)cc2)c(OC)cc1NC(=O)c1ccco1	-0.3%	-7	-16	-14	-0.2	-2.6
CN(C(=O)c1ccc(C#N)cc1)c1nnc(-c2cnccn2)s1	1.6%	-10	6	x	-1.1	-3.2
COC(=O)CN(c1ccccc1[N+](=O)[O-])S(=O)(=O)c1ccccc1	1.7%	-7	2	11	0.0	0.3
COc1ccc(CCNC(=O)C(=O)NCC2OCCN2S(=O)(=O)c2cccs2)cc1 (configuration not stated)	3.2%	1	3	-5	0.0	-3.6
CC(=O)Nc1cccc(-c2ccnc3c2CC(C)(C(=O)Nc2ccc(F)c(Cl)c2)O3)c1 (configuration not stated)	3.1%	x	-12	-30	-0.4	5.7
CCOC(=O)/C=C1\CC(=O)Nc2cc(C)c(C)cc2N1	-1.9%[38.3 µM]	-7	0	3	0.8	-3.2
CCOC(=O)C1=C(C)NC(=S)NC1c1cccs1 (configuration not stated)	-0.5%	3	3	7	-0.2	0.1
Cc1ccc(CSCC(=O)Nc2cc(S(=O)(=O)N3CCOCC3)ccc2OC(C)C)cc1	2.6%	15	-15	-1	2.5	1.5
O=S1(=O)N=C2CCCN2C(c2ccc(F)cc2)N1 (configuration not stated)	1.6%	-1	0	7	0.2	-1.0
CCC(C)NC(=O)C1c2cc(OC)c(OC)cc2C(=O)N(C)C1c1ccc(OC)cc1 (configuration not stated)	-4.9%	-3	6	3	-0.4	0.2
c1ccc2c(c1)nc(N1CCOCC1)c1nncn12	-1.3%	-6	-13	-1	-1.5	-2.8
CN(C(=O)C1CCC(=O)N(C2CC2)C1)C1CCCCC1 (configuration not stated)	1.2%	10	3	3	-0.5	-5.1
Cc1oc(-c2ccccc2F)nc1CSCC(=O)NC1CCC(C)CC1 (configuration not stated)	0.1%	18	-1	-2	-0.3	-1.0
CCN(C(=O)COc1ncnc2ccc(Br)cc12)C1CCS(=O)(=O)C1 (configuration not stated)	0.3%	1	3	6	0.2	-1.6
CCOc1ccccc1NC(=O)C(OC(=O)c1cc(C)oc1C)c1ccccc1 (configuration not stated)	0.5%	-12	-6	-15	1.5	2.3
Cc1cccc(N2CCN(C(c3ccc(F)cc3)c3nnc(-c4ccccc4)o3)CC2)c1C (configuration not stated)	2.3%	-13	x	x	0.9	x
Nc1cc([N+](=O)[O-])ccc1Nc1ccccc1	5.4%	-15	-19	-27	1.6	-7.5
C#Cc1ccc(CN2CCC(Oc3ccc(C(=O)NCc4ccccn4)cc3)CC2)cc1	-2.2%	22	-3	-4	0.5	-3.0
CC1(C)CC(=O)C(C=N)=C(O)C1	-0.1%	6	8	0	0.7	-0.4
CCOCCCNC(=O)CNC(=S)N(Cc1ccc(C)cc1)Cc1ccco1	-0.5%	12	12	6	-0.5	-4.0
COc1ccc(Cc2nc(-c3cccc(C)c3)no2)cc1	11%	19	55	36	1.5	-4.9
NC(=S)NNc1cccc2cccnc12	-0.5%	17	-92*	-92*	-0.6	13
Cc1cc(C(=O)Nc2ccccc2C)on1	-2.2%	-11	-5	-6	0.4	-4.2
Cc1ccccc1Cn1nnc2c(=O)[nH]c(C3CCN(C(=O)c4ccc(F)cc4)CC3)nc21	-1.4%	29	x	x	3.0	x
CCN(CC(=O)NCc1cccs1)C(=O)/C=C/c1cc(Br)ccc1OC(F)F	-1.8%	25	-3	0	2.8	-2.9
CCOc1ccc(CCNC(=O)c2ccc3c(c2)N(Cc2ccc(C)cc2)CCS3)cc1	11%	-12	x	x	0.0	x
O=C(O)CCSc1ccccn1	0.3%	2	5	-1	0.1	-2.7
CCCN(CCC)Cc1c(C(=O)N/N=C/C(C)=C\c2ccccc2)nnn1-c1nonc1N	4.0%	3	-13	-3	2.8	-2.4
COc1ccccc1N1CCN(C(=O)c2cc(C(=O)N3CCN(c4ccccc4OC)CC3)cc([N+](=O)[O-])c2)CC1	0.4%	-17	-4	x	-0.4	4.5
O=C(CSc1cn(CCNC(=O)c2c(F)cccc2F)c2ccccc12)NCC1CCCO1 (configuration not stated)	0.2%	2	3	8	0.4	-0.9
COc1ccccc1C(=O)COC(=O)CN1C(=O)c2ccccc2C1=O	-0.6%	-9	0	6	1.3	2.5
CC1c2[nH]c3ccccc3c2C[C@H]2C(=O)N(CCO)CC(=O)N12 (some centres not stated)	-0.2%	-1	3	5	0.4	3.3
CCN1CCCC1CNc1ccc(S(C)(=O)=O)cc1[N+](=O)[O-] (configuration not stated)	-0.6%	5	11	0	0.5	-2.5
CN(C)C(=O)COC(=O)c1cc(Cl)cc(Cl)c1N	3.1%	13	4	5	-0.4	-2.4
C#CCNC(=O)C1=C[C@H](c2coc3ccccc3c2=O)C[C@H](OCc2ccc(CO)cc2)O1	-1.9%	15	-7	1	-0.8	-0.2
Cc1ccc(N(CC(N)=O)C2SC(=O)N(Cc3cccc(C(=O)O)c3)C2=O)cc1 (configuration not stated)	0.3%	32	0	4	0.2	-2.9
COc1cccc(CC(=O)Nc2ccc3nc(Nc4cccc(C(F)(F)F)c4)cc(C)c3c2)c1	28%	-14	x	x	-0.7	x
CCN(CC)Cc1nc2nc(Cl)c(Cl)nc2[nH]1	0.7%	-11	-1	3	-0.5	-2.3
CCCCNS(=O)(=O)c1ccc2nc(SCC(N)=O)[nH]c2c1	3.0%	-9	-6	x	0.4	-5.0
CCOC(=O)Cc1csc(NS(=O)(=O)c2ccc(C(F)(F)F)cc2)n1	1.0%	35	-8	3	0.0	-1.3
CCCCNC(=O)C1CCN(S(=O)(=O)c2cnc[nH]2)CC1	0.0%	17	0	1	0.7	-2.7
C[C@@H]1CN([C@@H](C)CO)C(=O)CCCn2cc(nn2)CO[C@H]1CN(C)S(=O)(=O)c1ccc2c(c1)OCCCO2	0.2%	x	-1	3	x	-3.0
CC1CCCC(C)N1C(=O)COC(=O)Cn1cnc2c1c(=O)n(C)c(=O)n2C (configuration not stated)	0.3%	-16	11	7	-0.6	-1.4
Cc1ccc(-c2ccc(/C=N/n3cnnc3)o2)cc1Cl	-1.5%	41	-8	0	-0.6	-1.7
Cc1ccc(CNC(=O)CCc2c(C)c3ccc(O)c(C)c3oc2=O)cc1	2.4%	11	x	x	-1.5	x
O=C(NC(=S)N1CCCC1)c1cccc([N+](=O)[O-])c1	1.1%	7	3	3	-0.5	-4.7
CCC(C)NC(=O)C1(O)c2ccccc2NC(=O)N1c1ccc(C)c(C)c1 (configuration not stated)	-1.1%	-11	0	x	1.5	7.4

Screens: PubChem BioAssay, National Center for Advancing Translational Sciences (NCATS)
